From PubChem
Bead autofluor: counter-screen for toxin protease inhibitors: compound fluorescence; compound autofluorescence counterscreen, microsphere flow cytometry; stronger effect = higher value; fluorescence intensity (no concentration beside the values); actives 3.1% (n = 360,000); AID 624483;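 active = at least 3 SD above the mean of all compounds, about 16000 in these data; inconclusive = too few beads counted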;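 note: 100 nL of 1 mM stock went into each well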
PrP 5UTR inh: suppresses PrP 5' UTR mRNA reporter expression. inhibition, % (no concentration beside the values). AID 488862. actives 0.35% (n = 340,000). cell-based PrP 5' UTR mRNA reporter, plate reader;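 active = every replicate at 50% or more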;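 note: 0 = median of the neutral control wells; tested in H4 reporter cells; numbers are from one replicate; inactives centre near -14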
RN4220 kill: S. aureus RN4220 growth inhibition; OD600, 16 h; inhibition, % (test concentration not listed); actives 0.33% (n = 330,000); AID 1259311;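 active = z-score of -3 or lower and OD600 up to 0.18 on both plates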;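 note: plate controls were untreated cells for no effect and reference antibiotic for full effect; stock transfer was 100 nL into about 80 µL; one replicate is shown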
Mtb hypoxia rep: Mtb hypoxia fluorescent reporter inhibition; M. tuberculosis hypoxia-regulated fluorescent reporter, fluorescence; fluorescence inhibition, % (concentration not given with the values); actives 0.1% (n = 300,000);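 active = 35 to 45% if threefold the growth effect, above 45% if 1.5-fold the growth effect; inactive = the rest, general growth blockers included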;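 note: wells of about 50 µL received 100 nL stock; 0% = vehicle wells and 100% = reference inhibitor wells; whole bacteria with a GFP reporter of the hypoxia response; strong numbers were not always called active; many hits fall short of the cut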
BJeLR viability: BJeLR cell viability loss; BJeLR (HRASV12) viability, CellTiter-Glo ATP luminescence, 48 h; reference of the scale not given here; inhibition, % (no concentration beside the values); actives 0.17% (n = 300,000); AID 1554;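 active = replicate mean above 50%; inconclusive = above 50% but judged a plate artefact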;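 note: 50 nL library stock added to about 25 µL; numbers are from one replicate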
Sa ugtP lethal: kills S. aureus RN4220 lacking UgtP; S. aureus RN4220 ugtP deletion, OD600 growth, 16 h; some inactives read as strong as hits; growth inhibition, % (no concentration beside the values); actives 0.54% (n = 330,000); AID 1259309;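 active = z-score under -3 and OD600 up to 0.15 on both plates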;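 note: plate controls were untreated wells for no effect and antibiotic for full effect; wells of about 80 µL received 100 nL stock; the first replicate is given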
Mtb hypoxia rep growth: recorded beside Mtb hypoxia rep, whose call it bears; growth inhibition, %; measured here: M. tuberculosis growth (absorbance);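 0% = vehicle and 100% = reference antibiotic; read after six days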
The depositor's hits bear a star; ? = inconclusive; / = not tested or not shown; & = joins results of further samples.

SMILES	Bead autofluor	PrP 5UTR inh	RN4220 kill	Mtb hypoxia rep	Mtb hypoxia rep growth	BJeLR viability	Sa ugtP lethal
COc1ccc(OC)c(S(=O)(=O)N2CCN(C)CC2)c1	10871	-25	2.1	5	7	8	2
CC(C)NC(=O)c1ccc2c3n(nc2c1)-c1ccc(Cl)cc1CO3	3856	-47	5.3	12	13	13	4
CCN(CC)CCNC(=O)c1cc(S(=O)(=O)N2CCc3ccccc32)cn1C	7589	-3	4.6	2	3	1	1
Cc1nnc(SCc2cc(=O)[nH]c(Nc3nc(C)c4cc(C)c(C)cc4n3)n2)s1	3530	-35	1.7	-5	1	13	-9
O=C(Nc1ccc(Cl)cc1)c1cc(Br)ccc1OCC(=O)N1CCOCC1	4593	4	-10	-6	3	5	2
Cc1ccc(C)c(SCC(=O)Nc2nnc(-c3ccccc3)o2)c1	2715	-29	13	12	10	3	-5
CCOc1ccc(C(=O)OCC(=O)Nc2cc(C)on2)cc1OCC	8105	-26	3.1	5	6	4	8
CCOC(=O)c1cccc(NS(=O)(=O)c2c(C)[nH]c(C)c2C(=O)N2CCCC2)c1	5756	-7	-5.1	-10	3	8	-4
COC(=O)c1cc(OC)c(OC)cc1N1C(=O)CC(C)(C)CC1=O	3960	-26	4.2	16	-1	5	18
O=C(Nc1ccccc1)c1ccc(OC(=O)c2cc3ccccc3o2)cc1	21900*	-19	6.3	2	0	-2	6
O=C1c2ccccc2CN1Cc1ccccc1	3751	/	1.9	/	/	-1	8
CCOC(=O)c1ccc2nc(NC(=O)c3cccs3)sc2c1	4082	-75	15	-6	2	-1	-5
COc1ccc(S(=O)(=O)Nc2ccc3c(c2)C(=O)N(C(C)CO)CC(C)C(CN(C)CC2CC2)O3)cc1 (stereo not given)	/	/	1.1	15	7	/	-2
Cc1ccc(S(=O)(=O)CCC(=O)NCc2ccccc2F)cc1	?	-22	2.3	3	-5	8	8
O=C(Oc1ccc(Br)cc1C(=S)N1CCCC1)c1ccccc1Cl	3509	1	5.2	0	-3	-3	16
CCC(=O)NC(NCC1CCCO1)C(Cl)(Cl)Cl (stereo not given)	?	-7	14	-5	2	10	7
CCN1CCN(CCCNC(=O)c2ccc3c(c2)NC(=O)/C(=C\c2cccc(C)c2)S3)CC1	6028	6	-3.6	0	18	-5	-6
COCCCNC(=O)Cc1ccc(-n2c(C)nc3cccnc32)cc1	3408	1	-1.6	-7	-5	-2	-5
COc1ccc(C=NNC(=O)c2cc(-c3ccccc3)nc3ccccc23)c(OC)c1	/	/	-0.4	1	1	/	1
CCc1cc(=O)oc2cc(OC3CCCCC3=O)ccc12 (stereo not given)	3915	-9	0.0	8	0	6	14
Cc1ccc2c(c1)-c1c(ssc1=S)C(C)(C)N2C(=O)CSc1nncn1C	2379	-6	15	8	8	-10	2
O=C(NCc1ccco1)c1cnn2c1NC(c1ccc(Br)cc1)CC2C(F)(F)F (stereo not given)	4602	-20	0.7	/	/	-9	5
O=S(=O)(NC1CC2CCC1C2)c1ccc(Br)s1 (stereo not given)	5005	8	8.1	/	/	-13	-2
COc1ccc(NC(=S)N/N=C/c2ccc(F)cc2)cc1OC	3726	-27	/	/	/	-8	/

Retrieved one by one from the list above (4):
SMILES	Bead autofluor	PrP 5UTR inh	RN4220 kill	Mtb hypoxia rep	Mtb hypoxia rep growth	BJeLR viability	Sa ugtP lethal
O=C1c2ccccc2CN1Cc1ccccc1	3751	/	1.9	/	/	-1	8
CCOC(=O)c1ccc2nc(NC(=O)c3cccs3)sc2c1	4082	-75	15	-6	2	-1	-5
COc1ccc(NC(=S)N/N=C/c2ccc(F)cc2)cc1OC	3726	-27	/	/	/	-8	/
COc1ccc(OC)c(S(=O)(=O)N2CCN(C)CC2)c1	10871	-25	2.1	5	7	8	2

New compounds follow:
SMILES	Bead autofluor	PrP 5UTR inh	RN4220 kill	Mtb hypoxia rep	Mtb hypoxia rep growth	BJeLR viability	Sa ugtP lethal
Cn1c(=O)c2cc(S(=O)(=O)NC(C(=O)NCc3cccnc3)c3ccccc3)ccc2n(C)c1=O (stereo not given)	5935	-11	3.2	5	5	7	9
COc1ccc(-c2cc3ccc(OCC(C)=O)cc3oc2=O)cc1OC	5315	-81	-1.2	-4	-14	-4	1
O=C(O)COc1ccccc1/C=N/NC(=O)c1cc2ccccc2cc1O	3383	2	/	/	/	0	/
CC(C)CC(=O)N1CCN(S(=O)(=O)c2ccc(C3CCCCC3)cc2)CC1	3989	-30	4.1	5	2	/	2
COc1ccccc1N1CCN(S(=O)(=O)c2c(C(=O)N3CCOCC3)c(C)n(C)c2C)CC1	5817	2	1.1	3	6	-8	2
CN(CC(=O)Nc1cccc(F)c1)CC(=O)Nc1cccc([N+](=O)[O-])c1	3769	-34	-7.1	5	5	-7	4
Cc1ccc(SCCC(=O)Nc2ccccc2Br)cc1	4735	-21	13	17	4	3	10
Cc1cccc(CN2C(=O)c3ccccc3Sc3ccc(C(=O)NCCCN4CCOCC4)cc32)c1	5823	-20	-2.6	-1	2	-2	11
Cc1ccc2nc(SCc3cn4cccnc4n3)[nH]c2c1	3056	-27	-3.6	-5	-17	-6	2
Cn1c(=O)[nH]c(=O)c2c1nc(N1CCN(c3ccccc3)CC1)n2CCSc1ncccn1	5882	-7	-16	7	8	-3	-6
CCNC(=S)NNC(=O)c1nn(C)c(C)c1Cl	2932	-13	0.5	-5	6	6	0
COc1ccccc1OCc1nc2ccccc2[nH]1	17050*	-50	2.9	5	8	3	-2
O=C(c1cccs1)N1CCC(N2CCN(c3ccccc3)CC2)CC1	5040	-14	0.6	/	/	-11	-1
O=C(Nc1ccc(CN2CCOCC2)cc1)c1ccc(F)cc1	3717	-65	1.6	-8	16	3	6
CC(=O)Nc1ccc(/C=N/NC(=O)c2cc3cc(C)ccc3nc2C)cc1	4300	-46	/	/	/	-1	/
O=C(Nc1ccc(O)cc1)c1ccc2c(c1)C(=O)N(Cc1ccco1)C2=O	2149	-29	4.8	13	-1	0	12
O=C(NNC(=S)Nc1cccc2ccccc12)c1cccc(Br)c1	8580	-1	0.6	14	7	-9	-3
O=C1NC(Cc2ccccc2)COC(=O)C(Cc2ccc(F)cc2)CC=CCC1CC(=O)N(CCO)Cc1ccccc1 (stereo not given)	/	/	0.5&-2.3&-5.1&-9.2&-2.3	-1&-3&5&0&5	5&9&0&4&4	/	12&14&1&-21&11
COc1cc(CCCN2C(=S)NC[C@@H]2CC2CCCCC2)cc(OC)c1OC	3774	7	/	/	/	-2	/
O=C(COC(=O)C1=COCCO1)Nc1ccccc1OC(F)F	4443	-17	2.7	2	-1	24	3
COCCNc1ccc(S(=O)(=O)N2CCCC2)cc1[N+](=O)[O-]	4564	-11	1.3	13	6	3	2
Cn1c(=O)c2cc(S(=O)(=O)NC(C(=O)NCc3ccccn3)c3ccccc3)ccc2n(C)c1=O (stereo not given)	6070	-9	3.3	6	5	2	11
CC(C)(C)[C@@H]1C=C(C(=O)N2CCN(Cc3ccccc3)CC2)O[C@H](OCCCCO)C1	4336	-26	/	/	/	7	/
COc1ccc(C2C(C(C)=O)=C(C)Nc3ncnn32)cc1OC (stereo not given)	9735	-22	/	/	/	1	/
N#Cc1c(-c2c(Cl)cccc2Cl)noc1/C=C/Nc1ccc(C(=O)O)cc1	2014	-16	2.1	5	11	1	4
CN1CCN(C(=O)c2ccc(COc3ccc(Cl)cc3Cl)cc2)CC1	12687	-26	7.2	6	12	-2	0
Cc1ccsc1CN(C)C(=O)C1CCC(=O)N(CCc2cccc(F)c2)C1 (stereo not given)	4824	-43	2.5	8	7	7	4
CCOC(=O)c1cc2sccc2n1CC(=O)OC	3747	-4	5.4	6	0	-7	3
CCOC(=O)c1cc([N+](=O)[O-])sc1N	3863	-20	-0.7	13	-4	-20	4
O=C(CSc1n[nH]c(-c2cccnc2)n1)Nc1ccccc1C(F)(F)F	3740	-14	0.7	-9	5	-3	-2
Cc1ccc2nc(NC(=O)CS(=O)(=O)Cc3ccccc3)sc2c1	4762	-21	4.3	-7	10	3	-7
N#Cc1ccc(CSc2nnc(NC(=O)CN3C(=O)C4CC=CCC4C3=O)s2)cc1 (stereo not given)	4168	-12	5.3	/	/	-12	1
CN(/N=C/c1ccncc1)C1=NCCN1	3854	-7	/	/	/	3	/
O=C(Nc1ccccn1)N1CCOCC1	20658*	-31	-0.7	-7	12	4	-1
CCCNC(=O)NCCC12CC3CC(CC(C3)C1)C2	2187	-28	2.7	0	16	6	2
CC(C)NC(=S)N/N=C/c1ccc(N2CCOCC2)cc1	2320	-6	/	/	/	-5	/
COc1ccc(CSCC(=O)NN=Cc2ccc(OCC(=O)NCc3ccco3)cc2)cc1	/	/	-11	17	9	/	-7
O=C1CC(c2ccccc2)CN1C(=O)c1cncc(Br)c1 (stereo not given)	4534	-7	8.1	-4	-4	-6	7
O=C1CN(c2ccccc2Cl)C(=O)CN1c1ccccc1Cl	23954*	-19	2.9	3	2	0	8
CC1CCCC(C)N1C(=O)COC(=O)c1cccc(S(=O)(=O)N(C)c2ccccc2)c1 (stereo not given)	5696	0	-1.6	-4	-6	/	1
Fc1cc(F)cc(-c2c(-c3ccccc3)ncc3ccc(F)cc23)c1	4002	-21	-0.6	20	16	/	68
COC(=O)c1nnn(CC(=O)NC(=O)Nc2c(C)cccc2C)c1C(=O)OC	2565	-51	6.1	10	12	1	10
O=C(NCc1ccccc1)c1ccc(CS(=O)(=O)Cc2ccc(F)cc2)o1	5949	-10	2.1	-5	4	-4	6
CC(=O)c1cnc(Nc2nc(C)c3ccccc3n2)nc1C	/	/	-2.1	4	-2	-17	1
CCCSc1oc(-c2ccco2)nc1S(=O)(=O)c1ccccc1	6899	-16	9.4	12	14	2	2
CC(C)c1nnc(NC(=O)CCS(=O)(=O)c2ccccc2)s1	5546	-17	4.6	15	13	-9	6
CCOc1ccc(S(=O)(=O)NCCC(=O)Nc2nnc(C)s2)cc1	2812	-6	6.9	9	9	-1	9
COc1cccc(C(=O)Nc2ccc3[nH]c(=O)[nH]c3c2)c1OC	5415	11	-0.2	-10	-4	4	9
CCOC(=O)CC1C(=O)NCCN1Cc1cccc(OC)c1 (stereo not given)	4076	10	3.2	-3	2	13	7
O=S(=O)(NC1CC1)c1ccc(F)c(F)c1	5505	-15	/	/	/	-3	/
O=C1c2c(O)cc(O)cc2O[C@@]12c1c(cc(O)c3c1O[C@H](c1ccc(O)cc1)[C@@H](O)C3)O[C@@H]2c1ccc(O)cc1	3818	-7	/	/	/	-2	/
CCCCN1C(=O)N(CCc2ccc(F)cc2)S(=O)(=O)c2cc(C(F)(F)F)ccc21	3391	-15	-0.3	9	5	/	-20
COc1ccc(OC)c(C(=O)CSc2nnc(-c3cccs3)o2)c1	7564	-24	6.6	8	5	-2	-10
Cc1ccc(S(=O)(=O)N2CCOCC2)cc1C(=O)NCc1ccco1	5914	-13	3.1	2	-5	0	2
COc1ccc(C(=O)Nc2cc(C(=O)NCCc3ccccc3)ccc2Cl)cc1	9304	-40	8.0	6	7	-8	0
CCCn1c(N)c(C(=O)CSc2nnc3ccccn23)c(=O)[nH]c1=O	4246	-24	0.1	24	14	/	2
COc1cc(NC(=O)c2[nH]cnc2C(N)=O)cc(C(=O)Nc2cccc(C(F)(F)F)c2)c1	3757	-20	3.7	1	7	/	9
O=C(Nc1ccc2c(c1)CCC2)c1cc(=O)[nH]c2ccccc12	3987	-7	0.9	10	4	-5	5
COc1ccc(NC(C)=O)cc1NC(=O)CN1CCN(C2c3ccccc3-c3ccccc32)CC1	4265	1	6.8	/	/	-5	-9
CCCOc1ccc(-c2c(C(=O)N/N=C/c3ccc(OCC)cc3)nnn2-c2nonc2N)cc1	2106	-20	/	/	/	6	/

Other compounds
SMILES	Bead autofluor	PrP 5UTR inh	RN4220 kill	Mtb hypoxia rep	Mtb hypoxia rep growth	BJeLR viability	Sa ugtP lethal
CN(C(=O)c1ccc(S(=O)(=O)N2CCCC2)cc1)C1CCS(=O)(=O)C1 (stereo not given)	?	8	1.0	5	9	11	3
CCOC(=O)c1c(NC(=O)CSc2ncccn2)sc2c1CC(C)(C)NC2(C)C	5908	-41	-0.9	3	1	1	-1
Cc1c(/C=N/O)c2ccccc2n1C	8353	-14	/	/	/	-14	/
CSc1nc2ccccc2n1CC(=O)Nc1ccccc1	2956	-47	1.9	11	11	6	-3
O=C(CCC(=O)N1CCSc2ccccc21)NCc1cccc(Cl)c1	5992	-1	-0.6	/	/	-6	-7
Cc1ccc(-c2noc(CNCCCN(C)C)n2)cc1	5083	0	-4.7	7	10	12	-4
